Mtb growth – Mycobacterium tuberculosis H37Rv growth inhibition, putative kinase inhibitor library, confirmatory dose response (AID 2842); 5.2% of 24,000 active; inhibition, % at 10 µg/mL, or IC90 in µg/mL where a hit was titrated; M. tuberculosis H37Rv growth inhibition; higher % means a stronger effect; some inactives read as strong as hits;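 active means confirmed in a dose series; about a fifth of its hits are not listed in these tables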;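 further: bacteria incubated one week before Alamar blue readout; 0% = bacteria only wells and 100% = bacteria with high antibiotic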
* marks the source's active call; other numbers are inactive results.

SMILES	Mtb growth
O=C1CN(C(=O)c2ccc3ccccc3c2)C(c2ccccc2)c2cc(Cl)ccc2N1 (stereo not given)	76.9%
CCOC(=O)c1[nH]c2ccc(OC)cc2c1NC(=S)N1CCN(C(=O)OCC)CC1	4.1%
O=C1CN(C(=O)c2cccc3ccccc23)C(c2ccccc2)c2cc(Br)ccc2N1 (stereo not given)	8.15µg/mL*
NC(=O)c1c(NC(=O)c2ccc([N+](=O)[O-])cc2)sc2c1CCN(Cc1ccccc1)C2	12.1%
O=C(Nc1cccc(-c2ccc3nncn3n2)c1)c1cc(Br)ccc1Cl	24.3%
CCOc1ccccc1NC(=O)c1oc2ccccc2c1NC(=O)c1ccc(C)cc1	4.1%
COc1ccc(-c2nnc3ccc(SCC(=O)N4CCCC4)nn23)cc1OC	19.9%
COc1ccc(OCc2nc(C#N)c(NCc3ccc(C)cc3)o2)cc1	12.1µg/mL*
CCCCCn1c(SCc2cccnc2)nc2cc(C(=O)NCc3ccco3)ccc2c1=O	-5.2%
Cn1c(=O)[nH]c(=O)c2c1nc(N1CCc3ccccc3C1)n2Cc1ccccc1Cl	0.6%
O=C(CSc1nnc(CNC(=O)c2ccc(F)cc2)o1)NCc1ccc2c(c1)OCO2	-10.6%
O=C(Nc1nc2c(ccc3ccccc32)s1)c1ccc(S(=O)(=O)N2CCc3ccccc3C2)cc1	-3.3%
COc1ccc(Cl)cc1C(=O)Nc1nnc(-c2ccc(Cl)cc2)s1	0.2%
O=C(Nc1ccc(F)cc1)c1sc(N2CCOCC2)nc1-c1ccccc1	4.5%
CCc1ccc(N=Nc2sc3nc4c(c(=O)n(C)c(=O)n4C)n3c2O)cc1	-3.0%
CCOc1cc(-c2nnc(NC(=O)CC)o2)cc(OCC)c1OCC	27.7%
Cn1c(=O)[nH]c(=O)c2c1[nH]c(=S)n2CC(O)COc1ccccc1 (stereo not given)	-3.2%
COc1ccc(NC(=O)CSc2ncnc3ccccc23)c(OC)c1	5.7%
CC(C)C(=O)Nc1c(C(=O)Nc2cccc(Cl)c2)oc2ccccc12	-6.6%
CC(C)N1CCc2c(sc(NC(=O)c3ccc(S(=O)(=O)N(C)c4ccccc4)cc3)c2C(N)=O)C1	12.8µg/mL*
Nc1ncnc(N2CCOCC2)c1[N+](=O)[O-]	-5.1%
COc1ccc(-n2c(SCC(=O)N3CCc4ccccc43)nc3c([nH]c4ccccc43)c2=O)cc1OC	-4.1%
CCN1CCc2c(sc(NC(=O)c3ccc(C(=O)OC)cc3)c2C(N)=O)C1	5.2%
Cc1cc(NC(=O)c2cc(Cl)ccc2Cl)nc2c1c(=O)oc1ccccc12	-1.5%
CC(=O)c1sc(NC(=O)c2ccc(Br)s2)nc1-c1ccccc1	1.5%
C=CCOC(=O)C1=C(C)NC(=O)NC1c1cccc(Br)c1 (stereo not given)	34.7%
O=C(NCC(c1cccs1)N1CCc2ccccc2C1)c1ccc2c(c1)OCO2 (stereo not given)	23.9µg/mL*
O=C(CSc1ccc2nnc(-c3cccnc3)n2n1)N1CCN(c2ccccc2)CC1	40.8%
CCS(=O)(=O)c1ccc(C(=O)Nc2nc3c(OC)cccc3s2)cc1	-9.1%
CCOc1ccc(-n2cc(-c3ccccc3)c3c(N(Cc4ccccc4)Cc4ccccc4)ncnc32)cc1	25.5%

In the list so far, four contain two or more sulfur atoms:
SMILES	Mtb growth
O=C(Nc1nc2c(ccc3ccccc32)s1)c1ccc(S(=O)(=O)N2CCc3ccccc3C2)cc1	-3.3%
CC(C)N1CCc2c(sc(NC(=O)c3ccc(S(=O)(=O)N(C)c4ccccc4)cc3)c2C(N)=O)C1	12.8µg/mL*
CC(=O)c1sc(NC(=O)c2ccc(Br)s2)nc1-c1ccccc1	1.5%
CCS(=O)(=O)c1ccc(C(=O)Nc2nc3c(OC)cccc3s2)cc1	-9.1%

Following part:
SMILES	Mtb growth
COc1ccc(-c2ccc(NS(=O)(=O)c3cccnc3)cc2)nn1	-20.4%
Cc1cccc(-c2nc(C(N)=O)c3[nH]c(=O)n(-c4ccc(Cl)cc4)c3n2)c1	-9.5%
O=C(CSc1nc2c(c(=O)n1-c1ccccc1)SCC2)Nc1ccc(F)cc1	13.1%
CCCC(=O)Nc1c(C(=O)Nc2ccc(F)c(F)c2)oc2ccccc12	0.6%
CN(C)c1ccc(NS(=O)(=O)c2ccc([N+](=O)[O-])cc2)cc1	4.5%
CC(C)CNC(=O)C(=O)Nc1cc2c3c(c1)CCC(=O)N3CCC2	6.7%
Cc1cccc(NC(=O)c2cccc3c2-c2ccccc2C3=O)n1	-11.4%
CNC(=O)c1ccsc1NC(=O)c1ccc(S(=O)(=O)N2CCCc3ccccc32)cc1	1.4%
CC(=O)N1CCc2c(sc(NC(=O)c3cc(=O)c4ccccc4o3)c2C#N)C1	-2.0%
Cc1ccc(S(=O)(=O)N(C)CCCC(=O)Nc2ccccn2)cc1	3.4%
COc1ccc(-n2c(Cc3cccn3C)nnc2SCC(=O)Nc2nccs2)cc1	4.9%
c1c2c(cc3sc(N4CCOCC4)nc13)OCCO2	18.1%
Cc1ccc(C)c(-c2csc(NC(=O)c3ccc(S(=O)(=O)N4CCCCC4C)cc3)n2)c1 (stereo not given)	13.8%
CCCCOc1ccc(C(=O)NCCSc2ncc(-c3ccccc3)[nH]2)cc1	-17.5%
N#Cc1ccc(C(=O)Nc2nc(-c3ccc([N+](=O)[O-])cc3)cs2)cc1	-14.1%
O=C(CC1CCS(=O)(=O)C1)NCc1ccc(Cl)cc1 (stereo not given)	-7.3%
OCCCNc1ncnc2c1cnn2-c1ccc(Cl)c(Cl)c1	77.1%
O=C(Cc1ccccc1)Nc1c(C(=O)Nc2ccc(F)c(F)c2)oc2ccccc12	-4.9%
O=C(CSc1nc2c(cnn2-c2ccc(Cl)cc2)c(=O)[nH]1)Nc1cccc(Cl)c1	6.3%
Cc1cc(OC(=O)C(C)(C)C)c([N+](=O)[O-])c(=O)[nH]1	16.4%
COc1cccc(Cn2cc(C(=O)c3ccc(C)c(C)c3)c(=O)c3cc4c(cc32)OCCO4)c1	40.8%
O=c1c2nnn(Cc3ccccc3F)c2ncn1Cc1ccccc1	2.8%
COc1ccc(C(=O)c2cn(Cc3ccc(F)cc3)c3cc4c(cc3c2=O)OCCO4)cc1OC	11.2%
COc1ccc(NC(=O)C(=O)Nc2cc3c4c(c2)CCN4C(=O)CC3)cc1	-1.7%
Fc1cccc(-c2nnn3c2nc(N2CCCCC2)c2cc(Cl)ccc23)c1	-20.8%
Cc1ccc(OCc2nnc3n2CCCCC3)cc1	-4.1%
COc1ccc(-c2csc(NC(=O)c3cc4ccccc4cc3OC)n2)cc1	4.2%
Cn1c(=O)[nH]c(=O)c2c1nc(NCCc1ccccc1)n2CC(=O)c1ccccc1	4.0%
O=C(/C=C/c1cccs1)Nc1nc2c(s1)CSc1ccccc1-2	4.3%
COc1ccc(NC(=O)c2cnc3n(c2=O)CCS3)cc1OC	10.1%
O=C(O)CCCCNS(=O)(=O)c1ccc(Cl)c(C(F)(F)F)c1	-5.2%
CS(=O)(=O)c1cccc(C(=O)N(Cc2ccccn2)c2nc3c(Cl)cccc3s2)c1	-0.8%
Cc1ccc(-c2nnc3ccc(SCC(=O)Nc4nccs4)nn23)cc1	-3.7%
CNc1nc(Nc2ccc(C)c(Cl)c2)nc(N)c1[N+](=O)[O-]	6.9%
O=C(O)CCCNc1ncnc2ccc(Br)cc12	0.1%
COc1ccc(Cl)c2sc(NC(=O)c3ccc(S(=O)(=O)N4CC(C)OC(C)C4)cc3)nc12 (stereo not given)	-12.0%
CCOC(=O)c1oc2ccccc2c1NC(=O)C(C)C	15.2%
O=C(Nc1nnc(-c2ccncc2)o1)c1cc(Cl)ccc1Cl	6.58µg/mL*
COc1ccccc1-n1c(SCC(=O)Nc2ccc(C)c(Cl)c2)nc2c(c1=O)SCC2	-3.8%
O=C(CSc1nnc(-c2cccnc2)o1)c1ccc(Cl)cc1	3.6%
O=C(Nc1nnc(-c2ccco2)o1)c1cccc(C(F)(F)F)c1	<0.2µg/mL*
O=C1/C(=C\c2cccnc2)SC(=S)N1Nc1ccc([N+](=O)[O-])cc1[N+](=O)[O-]	-9.6%
CC(=O)CSc1nnc(NC(=O)Nc2ccc(F)cc2)s1	-11.4%
COc1ccc2oc(=Nc3cccc(C#N)c3)c(C(=O)NC(C)=O)cc2c1	2.2%
COc1cccc(N2CC(NC(=O)Nc3ncccc3C)CC2=O)c1 (stereo not given)	-0.5%
CC(C)(C)n1nc2c(c1NC(=O)c1ccc3c(c1)OCO3)CSC2	-1.8%
COc1ccccc1/C=C/CN1CCNC(=O)C1CC(=O)O (stereo not given)	-2.8%
CCC(=O)Oc1cccc(N2C(=O)c3ccc(C(=O)O)cc3C2=O)c1	9.7%
CC(=O)Nc1ccc2nc(NC(=O)c3ccc(Br)s3)sc2c1	0.8%
Cc1cccc(NC(=O)CSc2nc3c(c(=O)n2-c2ccc([N+](=O)[O-])cc2)SCC3)c1C	9.7%
O=C1CCc2cc(S(=O)(=O)Nc3ccc(Br)cc3F)cc3c2N1CCC3	-1.5%
O=C(O)/C=C/C(=O)Nc1ccc(S(=O)(=O)Nc2ccc(F)cc2)cc1	-20.5%
Cc1cccc(/C=C(\C#N)c2nc3ccccc3[nH]2)c1	-1.0%
Cc1cc2cc(CCNC(=O)c3ccc4c(c3)OCO4)c(=O)[nH]c2cc1C	55.4%
O=C(Cc1ccc([N+](=O)[O-])cc1)N=Nc1c(O)[nH]c2ccccc12	0.9%
O=C(Nc1nnc(-c2ccccc2Cl)s1)c1ccccc1I	0.6%
Cc1nnc(NC(=O)CSc2cn(CCNC(=O)c3ccc(Cl)cc3Cl)c3ccccc23)s1	5.7%
CNS(=O)(=O)c1ccc2c(c1)C(=NO)c1cc(S(=O)(=O)NC)ccc1-2	-1.5%
CCOc1ccccc1NC(=O)CSc1nnc(C)c(=O)n1N	-13.8%
COc1ccc(NC(C)=O)cc1NC(=O)c1cn(C)nc1OC	-1.4%

A draw from above in order of molar mass, ascending:
SMILES	Mtb growth
O=C(Nc1nnc(-c2ccco2)o1)c1cccc(C(F)(F)F)c1	<0.2µg/mL*
N#Cc1ccc(C(=O)Nc2nc(-c3ccc([N+](=O)[O-])cc3)cs2)cc1	-14.1%
O=C(Nc1ccc(F)cc1)c1sc(N2CCOCC2)nc1-c1ccccc1	4.5%
Cc1ccc(C)c(-c2csc(NC(=O)c3ccc(S(=O)(=O)N4CCCCC4C)cc3)n2)c1 (stereo not given)	13.8%

Continuation.
SMILES	Mtb growth
CN(C)S(=O)(=O)c1ccc(C(=O)NC2CC(=O)N(c3ccc(F)cc3)C2)cc1 (stereo not given)	-6.5%
Cc1ccc(NS(=O)(=O)c2ccc3[nH]c(=O)cc(C)c3c2)cc1C	3.6%
CCOC(=O)COc1cccc2c(=O)n(CC(=O)Nc3ccc(OC)cc3)ccc12	-9.0%
CC(=O)c1ccc(NC(=O)Cn2cnc3c(cnn3-c3ccc(Cl)cc3)c2=O)cc1	-0.1%
Cc1ccc(Nc2nc(N3CCN(Cc4ccccc4)CC3)nc3nccnc23)cc1	7.94µg/mL*
Nc1nc(SCC(=O)Nc2ccc(F)cc2F)[nH]c(=O)c1NC(=O)c1ccco1	-13.1%
CSc1nc2ccc3nc(NC(=O)CN4C(=O)c5ccccc5C4=O)sc3c2s1	0.8%
Cn1c(=O)c2c(SCC(=O)c3ccccc3)nc(-c3ccco3)nc2n(C)c1=O	4.5%
CCc1nnc(NC(=O)c2cccc3ccccc23)s1	-6.3%
CCc1cc(/C(Cc2csc(C)n2)=N/O)c(O)cc1O	-3.9%
CCOc1ccc2ncc(S(=O)(=O)c3ccccc3)c(Nc3ccc(OC)c(OC)c3)c2c1	0.5%
Cc1ccc(OCCCC(=O)Nc2nnc(C(C)C)s2)c(C)c1	-7.0%
COc1cccc2c(=O)n(CC(=O)Nc3ccc(Br)cc3)ccc12	-5.5%
Cc1cn2c3c(=O)[nH]c(=O)n(C)c3nc2n1C(C)C	-16.2%
O=C(Nc1c(C(=O)Nc2ccccc2)oc2ccccc12)c1ccc(F)c(F)c1	4.2%
Cc1ccc2cc(CCNC(=O)COc3ccc(Cl)cc3)c(=O)[nH]c2c1	6.8%
CCN1CCN(Cc2nc3c([nH]2)c(=O)n(C)c(=O)n3C)CC1	-2.7%
COc1ccc2cc(CCNC(=O)c3cccc([N+](=O)[O-])c3)c(=O)[nH]c2c1	2.3%
O=C1C2C3CC(C2C(=O)N1c1ccccc1)C1C(c2ccc(O)cc2)c2sc(=O)[nH]c2SC31 (stereo not given)	5.4%
Cc1ccc(-n2c(=O)cc(N3CCC(C)CC3)[nH]c2=O)cc1	-7.7%
CC(=O)c1ccc(NC(=O)CSc2nnc(CCC(=O)O)c(=O)n2N)cc1	-7.0%
O=C(Cc1cccc2ccccc12)Nc1nnc(-c2ccco2)o1	6.89µg/mL*
Cc1c(C)n2c(SCC(=O)Nc3ccc(C(F)(F)F)cc3)nnc2[nH]c1=O	-2.1%
C=CCN(CC=C)S(=O)(=O)c1ccc(C(=O)Nc2sc3c(c2C(N)=O)CCN(CC)C3)cc1	-1.5%
NS(=O)(=O)c1ccc(CCNC(=O)C(=O)Nc2cc3c4c(c2)CC(=O)N4CCC3)cc1	-2.5%
O=C(CNc1ccccc1)Nc1ncc(Cc2ccc(Cl)c(Cl)c2)s1	0.2%
CN(Cc1ccccc1)c1nc2c(c(=O)n(C)c(=O)n2C)n1CCSc1nc2ccccc2s1	22.3%
Cc1ccc(-n2ncc3c(NNC(=O)c4ccc(Cl)cc4)ncnc32)cc1Cl	-2.3%
CCn1c(SCC(C)C)nc2c1c(=O)[nH]c(=O)n2C	25.9%
COc1ccc(NC(=O)Cn2cnc3sc(C)c(-c4ccc(F)cc4)c3c2=O)cc1	-1.4%
O=C(Nc1cccc2c1C(=O)c1ccccc1C2=O)c1cccc(N2C(=O)CCC2=O)c1	-7.5%
O=C(C1=C(O)C(=O)N(c2nncs2)C1c1ccc(Cl)cc1)c1cccs1 (stereo not given)	-2.4%

Two entries from above, with bars between the fields.
Structure | Mtb growth
Cc1ccc(-n2ncc3c(NNC(=O)c4ccc(Cl)cc4)ncnc32)cc1Cl | -2.3%
CCn1c(SCC(C)C)nc2c1c(=O)[nH]c(=O)n2C | 25.9%

Screening results (PubChem)

These rows are one share of the data (hit frequency here may not be typical).
